BJeLR viability = BJeLR cell viability loss, primary screen, luminescence, CellTiterGlo ATP. BJeLR fibroblasts viability, 48 h; HRASV12, hTERT and SV40 LT/ST transformed. viability loss activity score, % (concentration not given with the values). hit rate 0.64% among 30,000; in the data active = viability loss activity score above about 50%; about a fifth of its hits are not listed in these tables;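 note: higher score means fewer live cells and less ATP luminescence; stock transfer was 50 or 100 nL into about 30 µL; 0% = vehicle wells and 100% = a reference killing control; one replicate is shown; the record names a cut of 85%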
A1 inhib = inducers of caspase activity in MEF A1-2A-BIM cells, primary screen, A1 inhibitor project, cell-based, CaspaseGlo luminescence | caspase-Glo luminescence, 3 h; percent of clofoctol signal, DMSO as zero | caspase activation, % (test concentration not listed) | hit rate 0.51% among 21,000;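 active = most replicate scores above 10, or exactly half above 10 with mean activity above 10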;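 note: effector caspase 3 and 7 activity cleaving a DEVD luciferin substrate; 50 nL library stock added to about 30 µL; numbers are from one replicate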
* = called active by the depositor; . = no result given. An excerpt (hit frequency here may not be typical).

SMILES	BJeLR viability	A1 inhib
Cc1cc(OC(=O)c2c(C)cc(O)cc2O)cc(O)c1C(=O)O	-1.3	-3.0
O=c1[nH]c2ccccc2nc1/C=C(/O)c1cccc2ccccc12	-1.8	-0.2
COc1ccc(CN(C)C[C@@H]2Oc3c(NC(=O)NC(C)C)cccc3C(=O)N([C@H](C)CO)C[C@@H]2C)cc1	-4.5	.
Cc1cccc(NC(=O)c2ccc(C)c(S(=O)(=O)N3CCCC3)c2)c1	5.0	-5.9
C[C@@H]1CN([C@H](C)CO)C(=O)c2cc(NC(=O)CCC(F)(F)F)ccc2O[C@H]1CN(C)Cc1ccc(Cl)c(Cl)c1	-0.2	0.1
C[C@@H]1CN([C@@H](C)CO)C(=O)c2cccc(NC(=O)C3CC3)c2O[C@@H]1CN(C)C(=O)NC1CCCCC1	0.4	.
CC(C)NC(=O)N(C)C[C@H]1Oc2ccc(NC(=O)CCC(F)(F)F)cc2C(=O)N([C@@H](C)CO)C[C@@H]1C	1.2	0.0
C[C@H](CO)N1C[C@H](C)[C@H](CN(C)C(=O)Nc2ccc(F)cc2)Oc2ccc(NC(=O)Cc3ccccc3)cc2C1=O	-3.7	0.3
NC(=O)C1C2CCC(C2)C1C(=O)c1ccccc1 (centres undefined)	1.6	0.7
Cc1noc(C)c1NC(=O)Nc1cccc2c1O[C@@H](CN(C)CC1CCCCC1)[C@H](C)CN([C@@H](C)CO)C2=O	1.9	.
Cc1cc2c(cc1S(=O)(=O)NC1CCCCC1)OCCN2C	-1.2	0.2
C[C@H]1CN([C@@H](C)CO)C(=O)c2cccc(NC(=O)C3CCCCC3)c2O[C@@H]1CN(C)S(=O)(=O)c1ccc(Cl)cc1	-4.6	.
O=S(=O)(NCCOC12CC3CC(CC(C3)C1)C2)c1cc(Cl)ccc1Cl	0.8	-0.7
C[C@H]1[C@H](C)CC[C@]2(C(=O)O)CC[C@]3(C(=O)O)C(=CCC4[C@@]5(C)CC[C@H](O[C@@H]6O[C@@H](C)[C@H](O)[C@@H](O)[C@H]6O)C(C)(C)C5CC[C@]43C)[C@H]12 (some centres undefined)	18	0.6
O=C1CCCC2=C1C(c1ccccc1Cl)N=C(Nc1nc3ccccc3s1)N2 (centres undefined)	-5.1	2.4
Cc1noc(C)c1NC(=O)N(C)C[C@H]1Oc2ccc(N(C)C)cc2C(=O)N([C@H](C)CO)C[C@@H]1C	0.7	0.4
CCC(=O)N1CCc2cc(S(=O)(=O)NC(CC(C)C)C(=O)Nc3cc(C)ccc3C)ccc21 (centres undefined)	5.5	.
CC(C)CNC(=O)C1CCN(C(=O)c2ccc(F)cc2)CC1	-5.7	0.6
COc1ccc(NC(=O)N(C)C[C@H]2Oc3c(NC(=O)Nc4ccc(C(F)(F)F)cc4)cccc3C(=O)N([C@@H](C)CO)C[C@H]2C)cc1	-4.7	.
COc1ccc(NC(=O)Nc2cccc3c2O[C@@H](CN(C)Cc2ccc(Cl)c(Cl)c2)[C@@H](C)CN([C@H](C)CO)C3=O)cc1	-1.4	.
COC(=O)c1cn(NC(=O)Cc2ccccc2OC)c(=O)c2ccccc12	-0.2	.
CSc1cc(-c2nccs2)[nH]n1	-4.7	-0.8
C[C@H](CO)N1C[C@H](C)[C@H](CN(C)Cc2ccc(-c3ccccc3)cc2)Oc2ccc(NS(C)(=O)=O)cc2C1=O	2.1	0.3
CCc1cccc(C)c1NC(=O)c1ccc(C(=O)Nc2c(C)cccc2CC)cc1	-2.7	1.5
O=C(CCn1nc(-c2ccccc2)ccc1=O)NCCc1ccccc1	-2.4	0.6
O=C(NC1CCCCC1)c1ccc2c(c1)ncn2C1CCCCCC1	5.8	-0.5
C[C@H]1CN([C@@H](C)CO)C(=O)c2cc(NS(=O)(=O)c3ccc(F)cc3)ccc2O[C@H]1CN(C)Cc1ccc(C(F)(F)F)cc1	0.3	0.5
CC(C)NC(=O)N(C)C[C@@H]1Oc2ccc(NC(=O)Nc3ccccc3)cc2C(=O)N([C@H](C)CO)C[C@@H]1C	-1.8	-0.3
Cc1noc(C)c1NC(=O)N(C)C[C@H]1Oc2c(NS(=O)(=O)c3ccccc3)cccc2C(=O)N([C@H](C)CO)C[C@H]1C	0.7	.
Cc1ccc(C2SCC(C(=O)O)N2C(=O)c2cccc(Cl)c2)cc1 (centres undefined)	9.0	-0.2
COCc1nnc(NC(=O)/C=C/c2ccc3c(c2)OCO3)s1	-6.3	.
CNC[C@H]1Oc2c(NS(=O)(=O)c3ccc(OC)cc3)cccc2C(=O)N([C@H](C)CO)C[C@H]1C	3.4	.
CC1CCCCC1NC(=O)c1cccc(N2C(=O)C3C4C=CC(C4)C3C2=O)c1 (centres undefined)	6.2	-0.8
C[C@H](CO)N1C[C@H](C)[C@@H](CN(C)C)Oc2ccc(NS(=O)(=O)c3ccc(F)cc3)cc2C1=O	-1.7	0.0
C[C@H]1CN([C@@H](C)CO)C(=O)c2cc(NS(C)(=O)=O)ccc2O[C@H]1CN(C)S(=O)(=O)c1cccs1	-0.8	0.5
CCC(=O)c1c(O)cc(O)cc1O	-6.3	-0.3
O=C(C1CC(c2ccc(F)cc2)=NO1)N1CCCc2ccccc21 (centres undefined)	5.8	.
COc1ccc(S(=O)(=O)Nc2ccc3c(c2)C(=O)N([C@@H](C)CO)C[C@@H](C)[C@H](CN(C)Cc2ccc(C(F)(F)F)cc2)O3)cc1	1.3	-0.2
Cc1ccc(S(=O)(=O)N(C)C[C@H]2Oc3ccc(NC(=O)Cc4ccccc4)cc3C(=O)N([C@H](C)CO)C[C@@H]2C)cc1	-5.8	0.7
C[C@H]1CN([C@@H](C)CO)C(=O)c2cccc(NS(=O)(=O)c3ccccc3)c2O[C@H]1CN(C)Cc1ccncc1	-0.8	.
CC(C)C1=C2CCCCC2NC(=O)N1 (centres undefined)	-1.1	-0.1
COc1cc2c(cc1OC)C(CC#N)=NCC2	-4.5	-0.4
O[C@@H]1[C@@H](O)C=C2CCN3Cc4cc5c(cc4[C@H]1C23)OCO5 (some centres undefined)	24	-0.6
O=c1oc2cc(O)ccc2s1	-3.7	-0.1
CN1CCN(C(=O)c2cc3c(ccc4ccccc43)oc2=O)CC1	-13	-0.6
C[C@@H]1CN([C@H](C)CO)C(=O)c2cccc(NS(=O)(=O)c3ccc(F)cc3)c2O[C@H]1CN(C)C	4.6	.
C=C1C(=O)OC2/C=C(\C)CC/C=C(\C(=O)O)CC/C=C(\C)CCC12 (centres undefined)	1.5	-1.2
COc1ccc(S(=O)(=O)N(C)C[C@@H]2Oc3ccc(NS(=O)(=O)c4c(C)noc4C)cc3C(=O)N([C@H](C)CO)C[C@H]2C)cc1	0.7	0.6
Cc1ccc(-c2nc(CSCC(=O)NC3CC3)c(C)o2)cc1	0.3	.
Cc1nc(C(N)=S)cs1	-5.0	0.7
Additional entries:
SMILES	BJeLR viability	A1 inhib
C[C@H](CO)N1C[C@H](C)[C@H](CN(C)S(=O)(=O)c2ccc(Cl)cc2)Oc2ccc(NS(=O)(=O)c3ccccc3)cc2C1=O	-2.7	0.5
C[C@@H]1CN([C@@H](C)CO)C(=O)c2cccc(NC(=O)c3nc4ccccc4s3)c2O[C@@H]1CN(C)Cc1ccc(-c2ccccc2)cc1	-3.2	.
C[C@H]1CN([C@@H](C)CO)C(=O)c2cccc(NC(=O)c3ccncc3)c2O[C@H]1CN(C)Cc1ccc(Oc2ccccc2)cc1	-2.4	.
C[C@@H]1CN([C@@H](C)CO)C(=O)c2cc(NC(=O)NC3CCCCC3)ccc2O[C@@H]1CN(C)Cc1ccc2c(c1)OCO2	-6.3	0.1
O=C(Nc1ccccc1)C1CCCCC1	-3.6	-0.9
O=c1c2ccccc2[nH]c(=S)n1C1CCCC1	-3.1	-0.1
COc1ccc(S(=O)(=O)N(C)C[C@H]2Oc3c(NC(=O)c4cnccn4)cccc3C(=O)N([C@H](C)CO)C[C@@H]2C)cc1	-0.9	.
Cc1cc2cc(CNC(=S)NCc3ccccc3)ccc2[nH]1	3.5	.
CCC(=O)[C@@]1(C)[C@H](C)C[C@H]2[C@@H]3CCC4=CC(=O)C=C[C@]4(C)[C@H]3[C@@H](O)C[C@@]21C	-9.1	0.3
CCN(CC)C(=O)Cn1cnc2sc(C(=O)N3CCN(c4ccc(F)cc4)CC3)c(C)c2c1=O	1.6	-0.1

Next section (3 carried over from the part before).
SMILES	BJeLR viability	A1 inhib
Cc1cc2cc(CNC(=S)NCc3ccccc3)ccc2[nH]1	3.5	.
CCC(=O)[C@@]1(C)[C@H](C)C[C@H]2[C@@H]3CCC4=CC(=O)C=C[C@]4(C)[C@H]3[C@@H](O)C[C@@]21C	-9.1	0.3
CCN(CC)C(=O)Cn1cnc2sc(C(=O)N3CCN(c4ccc(F)cc4)CC3)c(C)c2c1=O	1.6	-0.1
C[C@@H]1CN([C@H](C)CO)C(=O)c2cccc(NS(=O)(=O)c3cn(C)cn3)c2O[C@H]1CN(C)C(=O)Nc1cccc2ccccc12	-2.7	.
C[C@@H]1CC[C@@]2(C)C(C(=O)O)=CCC[C@@H]2[C@@]1(C)CCc1ccoc1	3.7	-0.6
C[C@H](CO)N1C[C@H](C)[C@H](CN(C)S(C)(=O)=O)Oc2ccc(NS(=O)(=O)c3cccs3)cc2C1=O	3.4	1.5
COC(=O)c1ccc2c(=O)n(CCC3=CCCCC3)c(SCC(=O)C(C)(C)C)nc2c1	-2.4	0.7
CCN(C1=NS(=O)(=O)c2ccccc21)N(CC)S(=O)(=O)c1ccc(C)cc1	2.8	0.0
C[C@H]1CN([C@@H](C)CO)C(=O)c2cc(NC(=O)Nc3ccc4c(c3)OCO4)ccc2O[C@H]1CN(C)CC1CCCCC1	-1.2	1.1
C[C@@H]1CN([C@@H](C)CO)C(=O)c2cc(NS(=O)(=O)c3ccc(Cl)cc3)ccc2O[C@H]1CN(C)Cc1ccc(Cl)c(Cl)c1	-4.8	-0.1
C[C@@H]1CN([C@H](C)CO)C(=O)c2cccc(NC(=O)c3ccncc3)c2O[C@H]1CN(C)Cc1ccncc1	3.6	.
C[C@@H]1CN([C@@H](C)CO)C(=O)c2cccc(NS(C)(=O)=O)c2O[C@@H]1CN(C)C	2.5	.
O=C1CCC(c2cccs2)=NN1CO	-0.1	-0.3
O=S(=O)(NCC(O)c1ccccc1)c1ccccc1 (centres undefined)	-6.0	1.4
O=C(CN1C(=O)CC(c2ccccc2)S(=O)(=O)c2ccccc21)Nc1ccccc1C(F)(F)F (centres undefined)	-5.0	0.4
CCN(C(=O)c1ccc(OC(C)=O)cc1)c1ccccc1C	1.0	-0.2
Cc1ccc(-c2cc(=O)c3ccc4ccccc4c3o2)cc1	5.4	-0.7
C[C@H]1CN([C@@H](C)CO)C(=O)c2cccc(NS(=O)(=O)c3ccc(Cl)cc3)c2O[C@H]1CN(C)Cc1ccc(C(F)(F)F)cc1	0.5	.
C[C@H](CO)N1C[C@H](C)[C@@H](CN(C)Cc2ccc(C(=O)Nc3ccccc3N)cc2)Oc2ccc(NS(=O)(=O)c3ccc(F)cc3)cc2C1=O	2.1	.

Structures above that contain fluorine:
SMILES	BJeLR viability	A1 inhib
C[C@@H]1CN([C@H](C)CO)C(=O)c2cc(NC(=O)CCC(F)(F)F)ccc2O[C@H]1CN(C)Cc1ccc(Cl)c(Cl)c1	-0.2	0.1
CC(C)NC(=O)N(C)C[C@H]1Oc2ccc(NC(=O)CCC(F)(F)F)cc2C(=O)N([C@@H](C)CO)C[C@@H]1C	1.2	0.0
C[C@H](CO)N1C[C@H](C)[C@H](CN(C)C(=O)Nc2ccc(F)cc2)Oc2ccc(NC(=O)Cc3ccccc3)cc2C1=O	-3.7	0.3
CC(C)CNC(=O)C1CCN(C(=O)c2ccc(F)cc2)CC1	-5.7	0.6
COc1ccc(NC(=O)N(C)C[C@H]2Oc3c(NC(=O)Nc4ccc(C(F)(F)F)cc4)cccc3C(=O)N([C@@H](C)CO)C[C@H]2C)cc1	-4.7	.
C[C@H]1CN([C@@H](C)CO)C(=O)c2cc(NS(=O)(=O)c3ccc(F)cc3)ccc2O[C@H]1CN(C)Cc1ccc(C(F)(F)F)cc1	0.3	0.5
C[C@H](CO)N1C[C@H](C)[C@@H](CN(C)C)Oc2ccc(NS(=O)(=O)c3ccc(F)cc3)cc2C1=O	-1.7	0.0
O=C(C1CC(c2ccc(F)cc2)=NO1)N1CCCc2ccccc21 (centres undefined)	5.8	.
COc1ccc(S(=O)(=O)Nc2ccc3c(c2)C(=O)N([C@@H](C)CO)C[C@@H](C)[C@H](CN(C)Cc2ccc(C(F)(F)F)cc2)O3)cc1	1.3	-0.2
C[C@@H]1CN([C@H](C)CO)C(=O)c2cccc(NS(=O)(=O)c3ccc(F)cc3)c2O[C@H]1CN(C)C	4.6	.
CCN(CC)C(=O)Cn1cnc2sc(C(=O)N3CCN(c4ccc(F)cc4)CC3)c(C)c2c1=O	1.6	-0.1
O=C(CN1C(=O)CC(c2ccccc2)S(=O)(=O)c2ccccc21)Nc1ccccc1C(F)(F)F (centres undefined)	-5.0	0.4
C[C@H]1CN([C@@H](C)CO)C(=O)c2cccc(NS(=O)(=O)c3ccc(Cl)cc3)c2O[C@H]1CN(C)Cc1ccc(C(F)(F)F)cc1	0.5	.
C[C@H](CO)N1C[C@H](C)[C@@H](CN(C)Cc2ccc(C(=O)Nc3ccccc3N)cc2)Oc2ccc(NS(=O)(=O)c3ccc(F)cc3)cc2C1=O	2.1	.

Screening results as filed in PubChem BioAssay.
